Screening data: PubChem BioAssay, ICCB-Longwood Screening Facility, Harvard Medical School
Sa growth inh = S. aureus growth inhibition at 42 and 30 °C, primary screen, LtaS inhibitor project, RN4220, two temperatures. OD600, 20 h, 42 °C; active compounds read low. relative growth, % (test concentration not listed). hit rate 0.53% among 170,000;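 active = growth at 42 °C up to 50% and 20 or more points under that at 30 °C, or under 10% at both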;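 note: 300 nL library stock went into each well; scaled to the means of positive and negative controls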
HCMV UL50-53 inh = inhibitors of HCMV UL50-UL53 interaction, biochemical, HTRF. AID 1918969, 2023. inhibition, % (test concentration not listed). normalized percent inhibition. hit rate 0.15% among 190,000;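 active = both replicates at 50% or more, plus weaker picks with an unusually low signal ratio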;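 note: stock transfer was 100 nL into about 20 µL; 0% = negative control wells and 100% = wells with untagged competitor protein; inactives centre near -12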
GIV Gai3 FP = inhibitors of GIV peptide binding to Galpha-i3, primary screen, biochemical, fluorescence polarization, FITC-GIV GBA peptide, rat Galphai3; Guanine nucleotide-binding protein G(i) subunit alpha-3 (Rattus norvegicus), P08753; 90 min; active compounds read low; scaled: aluminum fluoride 0%, vehicle 100%; percent of control (FP), % (concentration not given with the values); hit rate 0.42% among 210,000;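 active = replicate mean at 85% of control or lower, very high polarization wells dropped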;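 note: wells of about 15 µL received 100 nL stock; the first replicate is given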
Target sequence (P08753 whole entry, looked up): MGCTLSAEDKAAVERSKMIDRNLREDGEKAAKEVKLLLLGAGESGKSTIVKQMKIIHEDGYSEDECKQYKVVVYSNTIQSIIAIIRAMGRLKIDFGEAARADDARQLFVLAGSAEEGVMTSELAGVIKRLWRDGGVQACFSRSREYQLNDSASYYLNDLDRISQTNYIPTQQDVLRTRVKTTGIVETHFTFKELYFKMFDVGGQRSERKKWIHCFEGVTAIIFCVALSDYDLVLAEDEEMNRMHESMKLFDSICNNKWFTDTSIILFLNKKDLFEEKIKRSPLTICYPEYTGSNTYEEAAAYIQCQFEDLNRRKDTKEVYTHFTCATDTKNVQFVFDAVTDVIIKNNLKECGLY
Sa growth inh second temp = further read-out of Sa growth inh, marked with its call; relative growth, %; measured here: growth at 30 °C;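 optical density after 20 h as mean of two plates; 100% = untreated growth and lower means inhibition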
* = called active by the depositor; nt = not tested or not shown; & = joins results of further samples.

molecule,Sa growth inh,Sa growth inh second temp,HCMV UL50-53 inh,GIV Gai3 FP
Clc1ccc(-c2noc(-c3ccc(CN4CCOCC4)cc3)n2)cc1,nt,nt,7,99
Cn1c(CC2Sc3ccccc3NC2=O)n[nH]c1=S (stereo unspecified),97,88,-12,106
Cc1ccc(NC(=O)CSCc2nc3ccc(Cl)cc3n2CCO)cc1C,122,98,0,nt
Cc1ccccc1-c1nc(C(N)=O)c2c(n1)n(-c1ccc3c(c1)OCO3)c(=O)n2C,110,90,-26&-13,102&101
Cc1cc(NC(=O)COC(=O)c2ccc(S(=O)(=O)N3CCCc4ccccc43)cc2)no1,91,82,-18,nt
CN(C)C(=O)C1OC(C)(C)OC1C(=O)N(C)C (stereo unspecified),88,105,-6,102
O=C(NCc1cccc(F)c1)C1CCN(C(=O)c2sccc2-n2cccc2)CC1,87,88,-7,110
CC1CCN(S(=O)(=O)c2ccc3ncn(CC(=O)N(C)Cc4ccccc4)c(=O)c3c2)CC1,92,85,-30&-4,99&100
CN(C)CCN1C(=O)c2oc3ccc(F)cc3c(=O)c2C1c1cccs1 (stereo unspecified),83,85,-89,100
Nc1nc2nonc2nc1N1CCCCC1,nt,nt,-19,96
COCc1cc(C)nc2sc3c(=O)n(C(C)(C)C)nnc3c12,104,88,-10,105
O=C(NCc1nc(-c2ccccc2)no1)C12CC3CC(CC(C3)C1)C2,99,88,nt,107
Cc1cccc(N=C2NC(=O)CS2)c1,91,93,-8,nt
COc1cc(NC(=O)N2CCC(CN3CCCCCC3)CC2)cc(OC)c1OC,111,97,nt,105
O=C1CCSc2ccc(S(=O)(=O)N3CCN(c4ncccn4)CC3)cc2N1,nt,nt,-2,108
Cc1noc(C)c1C(=O)OCc1cc(F)cc2c1OC(c1ccccc1)OC2 (stereo unspecified),83,85,-16,nt
O=C(Cn1nnc(-c2ccccc2F)n1)N1CCCCC1,92,96,1,nt
Cc1ccc(-c2c(CN3CCN(c4cccc(C)c4C)CC3)csc2C)cc1,105,96,nt,106
CCOC(=O)C1CCN(CC(O)C(F)(F)F)CC1 (stereo unspecified),nt,nt,1,97
CC(=O)NC1CCCc2c1[nH]c1ccc(C)cc21 (stereo unspecified),99,85,-9,93
CCC(=O)N1c2ccccc2NC2=C(C(=O)CC(c3ccccc3)C2)C1c1ccc([N+](=O)[O-])cc1 (stereo unspecified),nt,nt,-32,102
Cc1oc(-c2ccccc2)cc1C(=O)Nc1ccccc1,107,95,-2,97
NC(=O)c1cc(S(=O)(=O)N2CCCC2)ccc1OCc1nc(-c2ccccc2)no1,113,90,-25,nt
Cc1[nH]c2ccccc2c1/C=N/c1c(-c2ccco2)nc2ccccn12,108,54,-34,nt
COc1ccc(NC(=O)Cn2c(=O)n(CCCC(=O)NCc3ccccc3OC)c(=O)c3ccccc32)cc1Cl,100,105,6,110
CCOc1ccc(CC(=O)NCCS(=O)(=O)N2CCN(c3ccc(OC)cc3)CC2)cc1,89,91,nt,102
Cc1ccc(-c2nc(CSCC(=O)N3CCN(c4ccccn4)CC3)c(C)o2)cc1,nt,nt,-37,100
N#CCc1ccc(C(=O)c2ccco2)s1,nt,nt,-59,124
CC(C)C1NC(=O)CNC1=O (stereo unspecified),95,88,-14,105
CCOc1ccc(-c2c(C#N)c(N)nc(SCC(=O)c3ccc(C)cc3)c2C#N)cc1,nt,nt,-23,98
COC(=O)c1cn(Cc2ccc(Cl)cc2)cc(F)c1=O,96,87,2,105
O=C(O)COc1ccc(OCc2ccccc2)cc1,81,95,-11,nt
COc1ccc(NC(=O)Cn2cc(S(=O)(=O)N3CCN(c4ccccc4F)CC3)c3ccccc3c2=O)cc1Cl,113,91,3,107
COc1ccc(-c2nnc(SCC(=O)NCCCc3ccccc3)n2N)cc1,107,94,-5,nt
Cc1cc(S(=O)(=O)N2CCCc3ccccc32)ccc1OCC(N)=O,104,87,-16,99
O=c1[nH]c(CN2CCCC2)nc2scc(-c3ccc(Cl)cc3)c12,92,45,-20,nt
Cc1ccc(C)c(CN2C(=O)c3ccccc3S(=O)c3ccc(C(=O)N4CCN(c5cccc(Cl)c5)CC4)cc32)c1 (stereo unspecified),103,99,6,98
CNCc1ccc(F)cc1,89,92,-2,nt
CC(C(=O)Nc1ccc(F)c(Cl)c1)N1Cc2ccccc2C1=O (stereo unspecified),104,101,nt,106
CCCn1nnc(NC(=O)Cc2ccccc2)n1,94,77,-11,103
CCOCCc1nn2c(=O)cc(COC(=O)c3ccco3)nc2s1,88,91,nt,98
CCc1ccccc1Nc1ncnc2c1cnn2-c1ccc(C)cc1C,100,86,nt,102
COc1cc(OC)c(NC(=O)CCc2nnc(C(=O)Nc3ccc(C)cc3)s2)cc1Cl,nt,nt,-4,114
CC1=C(C(=O)OCC(F)(F)F)C(c2ccc(OCc3ccccc3)cc2)NC(=O)N1 (stereo unspecified),nt,nt,-8,102
COc1ccc(N2C(=O)C3CC=CC(C)C3C2=O)cc1 (stereo unspecified),93,90,nt,99
O[Si](CCCN1CCCCC1)(c1ccc(F)cc1)C1CCCCC1 (stereo unspecified),nt,nt,-21,104
CCn1c(=O)cc(SCC(=O)NCCc2ccc(Cl)cc2)c2ccccc21,104,91,-43,101
COc1ccccc1CNCCN1CCOCC1,113,93,-14,102
Cc1[nH]nc2c1C(c1ccc(O)c(O)c1)CC(=O)N2 (stereo unspecified),nt,nt,-19,97
Cc1ccccc1CCNC(=O)c1ccc2c(c1)c(C)c(C)n2Cc1ccccc1,114,102,nt,112
N#C/C(C(=O)NC1CC1)=c1/s/c(=C/c2ccco2)c(=O)n1-c1ccc(F)cc1,93,92,-16,nt
CC(C)(C)c1ccc(-c2noc(CNS(=O)(=O)c3ccccc3)n2)cc1,110,97,-13,107
CC1=CS(=O)(=O)CC1,94,87,-2,101
O=C(CCc1nc(-c2ccccc2)no1)NC1CCCC1,99,81,-26,97
COc1cccc(-c2nnc(SCC(=O)NC3CCCCC3)o2)c1,111,83,-5,105
Cn1nnc(NC(=O)COc2ccccc2)n1,114,83,-8,104
Cc1cccc(CCNC(=O)CCc2c(C)nc3c4c(C)cc(C)nc4nn3c2C)c1,103,89,-6,98
CC(C)(C)c1ccc(C(=O)Oc2ccccc2CCC(=O)O)cc1,100,99,-5,97
CC12C=CC(O1)C1C(=O)N(c3ccc(F)c(Cl)c3)C(=O)C12 (stereo unspecified),114,83,-19,144
Cc1cccc(NC(=O)c2cccc(C(=O)Nc3cccc(C)c3)c2)c1,113,87,nt,99

New compounds follow:
molecule,Sa growth inh,Sa growth inh second temp,HCMV UL50-53 inh,GIV Gai3 FP
Cc1ccc(Cl)cc1N1CCN(C(=O)CCS(=O)(=O)c2ccc3c(c2)oc(=O)n3C)CC1,19,0,nt,106
O=C(O)c1sccc1S(=O)(=O)N1CCN(c2ccc(C(F)(F)F)cn2)CC1,110,89,-38,102
O=C(O)c1ccccc1-n1c(=O)c2cc3c(=O)n(-c4ccccc4C(=O)O)c(=O)c3cc2c1=O,89,85,nt,91
Cn1c(C(Cc2ccccc2)NC(=O)c2ccccc2)nc2ccccc21 (stereo unspecified),105,93,nt,104
Cc1ccc(S(=O)(=O)N2CCC(c3nc(-c4cccc(C(=O)N5CCCCC5)c4)no3)CC2)cc1,nt,nt,-7,100
Cc1cnc(C(=O)Nc2ccc(-n3cnnn3)cc2)cn1,91,84,-37,nt
O=S(=O)(c1ccccc1)c1nnn2c1nc(NC1CCCC1)c1sccc12,105,94,41,102
COc1ccc(CNC(=O)CN2CCN(Cc3ccccc3)C2=O)cc1,106,82,-4,106
CCCn1c(=S)[nH]c2cc(C(=O)N3CC(C)CC(C)C3)ccc2c1=O (stereo unspecified),90,82,nt,103
O=C(O)c1nc(-c2ccccc2)cc(-c2ccccc2)n1,108,96,1,103
CC(OC(=O)Cc1c[nH]c2ccccc12)C(=O)N1CCc2ccccc21 (stereo unspecified),108,78,-28,nt
O=C(Nc1ccc(-c2cc3cc(Cl)ccc3[nH]2)cc1)c1cnccn1,nt,nt,-8,102
Cc1cc(C)nc(SCC(=O)c2ccc3c(c2)OCCO3)n1,92,76,4,96
O=C(N=C=S)c1ccc2ccccc2c1,73,78,-23,nt
COc1ccc(C(CCN2C(=O)CCC2=O)C2CCOC(C)(C)C2)cc1 (stereo unspecified),95,82,-84,99
COc1ccc(OCC(O)CN(Cc2ccccc2)Cc2ccccc2)cc1 (stereo unspecified),99,88,-8,99
CCCCn1nnnc1CSCC(=O)Nc1ccc2c(c1)OCCO2,90,93,-6,nt
CC1(C)CC(CC(=O)O)(c2ccccc2)CCO1 (stereo unspecified),95,89,-10,93
Cc1cccc(N2C(=O)N(c3cccc(C)c3)C3CS(=O)(=O)CC32)c1 (stereo unspecified),nt,nt,-13,97
CCc1ccccc1NC(=O)N1CCC(CN2CCc3ccccc3C2)CC1,113,98,nt,105
O=C(NCc1cccnc1)c1ccc2c(c1)N(Cc1ccccc1)CCS2,nt,nt,-18,102
CC1(C)CC(=O)C=C(Nc2ccccc2F)C1,104,75,-4,95
Cn1ccnc1C(=O)c1cccs1,82,86,-2,nt
CCOC(=O)C1=C(C)N=c2s/c(=C\c3ccccc3OC(C)=O)c(=O)n2C1c1ccccc1OC(C)C (stereo unspecified),nt,nt,15,106
Cc1nc2cc3c(cc2n1CC(=O)NCC(F)(F)F)OCCO3,95,92,0,nt
CCCN(CCC)C(=O)Cn1c(SCc2cccc(C(F)(F)F)c2)nc2cccnc21,112,99,nt,101
CCCc1nnc(N2C(=O)c3oc4ccc(F)cc4c(=O)c3C2c2ccc(C(=O)OC)cc2)s1 (stereo unspecified),96,87,-24,108
CCOc1ccccc1NC(=O)c1c(NCc2cccs2)sc2c1CCC(C)C2 (stereo unspecified),104,100,nt,103
Cc1ccc(-c2cc(C(=O)NCc3ccccc3Cl)c3ccccc3n2)cc1C,124,80,nt,101
Cc1ccc(-n2nc(C)c(C(=O)NCCCN3CCN(c4ccccc4F)CC3)c2-n2cccc2)cc1,110,108,nt,101

Arranged by value in GIV Gai3 FP (high to low): six of the compounds above
smiles | GIV Gai3 FP
CCCn1c(=S)[nH]c2cc(C(=O)N3CC(C)CC(C)C3)ccc2c1=O (stereo unspecified) | 103
O=C(NCc1cccnc1)c1ccc2c(c1)N(Cc1ccccc1)CCS2 | 102
Cc1ccc(S(=O)(=O)N2CCC(c3nc(-c4cccc(C(=O)N5CCCCC5)c4)no3)CC2)cc1 | 100
COc1ccc(OCC(O)CN(Cc2ccccc2)Cc2ccccc2)cc1 (stereo unspecified) | 99
CC1(C)CC(=O)C=C(Nc2ccccc2F)C1 | 95
CC1(C)CC(CC(=O)O)(c2ccccc2)CCO1 (stereo unspecified) | 93

Going on with the list:
molecule,Sa growth inh,Sa growth inh second temp,HCMV UL50-53 inh,GIV Gai3 FP
COc1cccc(NC(=O)Cn2nc3c4ccccc4n(Cc4cccc(F)c4)cc-3c2=O)c1,86,96,nt,107
COc1ccc(/C=C/C(=O)NCC2(c3ccccc3)CCOCC2)cc1,107,84,nt,102
O=C(COc1ccc(Cl)cc1)Nc1ncc(S(=O)(=O)c2ccc([N+](=O)[O-])cc2)s1,nt,nt,-33,101
COCCCNC(=O)c1ccc(Cn2c(=O)c3cc(OC)c(OC)cc3n(C)c2=O)cc1,nt,nt,-28,109
CC1(C)SC(C(=O)O)NC1C(=O)O (stereo unspecified),99,91,-6,99
COc1cc(C)c(S(=O)(=O)Nc2ccc3nc(C)sc3c2)cc1C(C)C,61,27,-4,nt
O=C(CN(Cc1ccc2c(c1)OCO2)C(=O)c1cnsn1)NC1CCCC1,120,93,-26,103
COc1cc(C(=O)NCC(c2cccs2)S(=O)(=O)c2ccc(F)cc2)cc(OC)c1OC (stereo unspecified),103,97,nt,100
O/N=C(\Cc1ncc[nH]1)c1ccccc1,85,93,-6,nt
c1cnc(NCC2COc3ccccc3O2)nc1 (stereo unspecified),96,89,-24,nt
CN1C(=O)c2cc(C(=O)NCc3ccccc3)nn2CC1(C)C(=O)NC1CCCC1 (stereo unspecified),nt,nt,-6,103
O=C(Nc1ccccc1N1CCOCC1)c1ccccc1,103,86,-31,99
COCCNC(=O)Cn1c(-c2cccs2)cc2cc(Cl)ccc21,91,81,nt,111
COc1ccc(NC(=S)N2CCC(c3nc4ccccc4o3)CC2)c(OC)c1,111,88,-21,103
COc1ccc(NC(=O)NCCc2c(C)nn(C)c2C)c(OC)c1,90,91,nt,102

By substructure: the compounds so far with a tert-butyl group.
molecule,Sa growth inh,Sa growth inh second temp,HCMV UL50-53 inh,GIV Gai3 FP
COCc1cc(C)nc2sc3c(=O)n(C(C)(C)C)nnc3c12,104,88,-10,105
CC(C)(C)c1ccc(-c2noc(CNS(=O)(=O)c3ccccc3)n2)cc1,110,97,-13,107
CC(C)(C)c1ccc(C(=O)Oc2ccccc2CCC(=O)O)cc1,100,99,-5,97
